HNF4A DNA FP – change in binding of human HNF4 alpha to DNA. HNF4a-FITC DNA binding, fluorescence polarization, 1 h. activity change, % at 10 µM. hit rate 0.3% among 360,000; in the data active = activity change above about 30%, passing the limit was not always enough;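 also: controls were the assay level and a saturating level of protein; the project sought stronger binding though the title names inhibitors; some compounds called inactive have numbers as strong as hits; positive values seem to mean higher polarization but the record does not say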
Target sequence (P41235 whole entry, looked up): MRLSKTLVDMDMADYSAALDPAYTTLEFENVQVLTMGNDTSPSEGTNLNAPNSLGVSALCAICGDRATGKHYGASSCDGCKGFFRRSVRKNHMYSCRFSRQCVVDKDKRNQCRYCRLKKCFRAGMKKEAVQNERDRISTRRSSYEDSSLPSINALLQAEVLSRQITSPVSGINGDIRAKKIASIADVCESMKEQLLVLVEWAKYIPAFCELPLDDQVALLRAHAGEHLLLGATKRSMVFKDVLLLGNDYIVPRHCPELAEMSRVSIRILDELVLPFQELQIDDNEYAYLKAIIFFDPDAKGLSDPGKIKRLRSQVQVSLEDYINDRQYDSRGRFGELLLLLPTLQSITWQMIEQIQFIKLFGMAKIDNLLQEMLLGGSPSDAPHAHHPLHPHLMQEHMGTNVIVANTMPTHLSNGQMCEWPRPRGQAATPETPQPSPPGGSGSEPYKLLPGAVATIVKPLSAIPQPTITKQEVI
The depositor's hits bear a star. Some of the compounds tested (hit frequency here may not be typical).

HNF4A DNA FP | mol
-1.0 | O=C(NCc1cccc(Cl)c1)C1Cc2c(-c3ccccc3)ccnc2O1 (stereo not given)
1.8 | CCCOc1ccc(F)cc1-c1cc(C(=O)NCc2ccco2)[nH]n1
-1.9 | N#CCc1ccc(-c2cccc3nccn23)cc1
0.3 | Cc1cc(C)cc(CC(=O)N2CCC2(C)C(=O)NS(=O)(=O)c2cccc(F)c2)c1 (stereo not given)
13.3 | COc1ccc(Cc2c(-c3ccc(Cl)cc3)nc3c(C)cc(Br)cn23)c(C)c1
7.3 | Cn1cc(-c2csc(C(O)c3ccc(F)c(F)c3)n2)cn1 (stereo not given)
-1.4 | OC(c1cccc(CN2CCCCC2)c1)c1ncc(-c2cccc3ccccc23)[nH]1 (stereo not given)
4.7 | c1csc(CNc2nc(Oc3ccncc3)c3sccc3n2)c1
-3.8 | CCOC1=C2[C@@H](CN(S(=O)(=O)c3ccc(C)cc3)[C@H]2c2cccc3ccccc23)[C@H]2C(=O)N(C)C(=O)[C@H]2C1
2.7 | CC(C)C(=O)N1CCCC1(C)C(=O)Nc1ccc(-n2cncn2)cc1 (stereo not given)
3.8 | CC(C)NC(=O)c1ccc(-c2ccc(F)c(F)c2)c2ccoc12
0.6 | CCCS(=O)(=O)NC(=O)C1(C)CCN(C(=O)CSc2ccccc2)C1 (stereo not given)
9.8 | C/C=C/c1cccc(-c2nc(C(=O)NC3CCC3)cc3c2[C@H](CCO)N(S(=O)C(C)(C)C)C3)c1 (stereo not given in full)
2.9 | CC(C)C[C@H]1CNC(=O)C(=O)N1C[C@@H]1CCCN1C[C@H](Cc1ccccc1)N1C[C@H](Cc2ccccc2)N(CCc2ccccc2)C(=O)C1=O
-1.8 | CC1(C(=O)Nc2ccc3c(c2)OCO3)CCN1C(=O)CCc1ccc(Cl)cc1Cl (stereo not given)
-1.4 | Cc1cc(F)ccc1C(O)c1ncc(-c2ccc(Cl)cc2)[nH]1 (stereo not given)
-6.9 | C=CCNc1ncnc2c1ncn2[C@H]1CN(Cc2ccc(-c3ccccc3)cc2)C[C@@H](CO)O1
-0.5 | CCCCc1c(-c2ccc(OC)cc2)ncn1CCc1ccccc1OC
-0.9 | CCOC(=O)N1CCN(C(c2ccnc3ccccc23)c2nnnn2-c2c(C)cccc2C)CC1 (stereo not given)
5.4 | COc1ccc(F)cc1-c1cc(C(=O)NC2CCCCC2)[nH]n1

The list continues:
HNF4A DNA FP | mol
-4.6 | CC1(C(=O)Nc2ccc3c(c2)OCCO3)CSCC(=O)N1CC(F)(F)F (stereo not given)
2.4 | CC1(C(=O)NS(=O)(=O)c2ccccc2)CCN1C(=O)C/C=C/c1ccccc1 (stereo not given)
-0.8 | COC(=O)[C@@]12C[C@@H](CC(=O)NCC3CCCCC3)C(=O)N(CCc3ccc(OC)c(OC)c3)C1=CCC(C)(C)C2
0.2 | COC(=O)C[C@@H]1CC[C@@H](NC(=O)Nc2cc(F)ccc2F)[C@@H](CO)O1
-5.5 | COc1ccc(-c2coc3c(C(=O)NCC4CC4)cccc23)c(C)c1
5.0 | O=C(NC(c1ccc2c(c1)OCO2)c1ccccn1)C1CCN(CCOc2ccc(Cl)cc2Cl)CC1 (stereo not given)
0.1 | CCCCn1nnnc1C(c1ccccc1)N1CCN(c2ccc(F)cc2)CC1 (stereo not given)
6.3 | O=C(NCc1ccccc1)C(c1ccccc1F)n1c(=O)c(-c2cc3ccccc3[nH]2)nc2ccccc21 (stereo not given)
-1.4 | CC1(C(=O)Nc2ccc3c(c2)OCO3)CCN1C(=O)c1ccco1 (stereo not given)
0.9 | CC1(C(=O)NS(=O)(=O)c2ccc(Cl)cc2)CCN1C(=O)c1ccccc1 (stereo not given)
-1.3 | COC(=O)[C@@]12C[C@@H](CC(=O)NCc3ccccc3)C(=O)N(Cc3ccc4c(c3)OCO4)C1=CCC(C)(C)C2
2.4 | CCOC(=O)[C@]12CCC=C1N(Cc1ccccc1)C(=O)[C@H](CC(=O)N1CCOCC1)C2
-2.5 | COc1cc(OC)cc(-c2noc([C@H]3C[C@H](O)[C@@H](CO)O3)n2)c1
14.1 | Cc1cc2cc3c(=O)[nH]c(=O)cc-3n(CC(O)C(O)C(O)CO)c2cc1C (stereo not given)
-5.1 | COc1cc(C(O)c2nc(/C=C/c3ccccc3)cs2)ccc1F (stereo not given)
-0.5 | COC(=O)[C@@]1(Sc2ccc(C)cc2)CC(=O)N[C@@H]1c1ccc(Br)cc1
7.3 | CS(=O)(=O)N1CCCCC1c1cc(C(=O)Nc2ccc3c(c2)OCO3)no1 (stereo not given)
-0.1 | NC(Cc1ccc(F)cc1)c1csc(Nc2nccc(C(F)(F)F)n2)n1 (stereo not given)
-0.7 | COc1ncc(-c2ccc(N3C(c4ccsc4)=Cc4ccccc4C3CC(C)=O)cc2)cn1 (stereo not given)
2.0 | COc1ccccc1-c1csc(C(O)c2ccc(F)c(F)c2)n1 (stereo not given)

At a glance, part of the list above:
HNF4A DNA FP | mol
-0.1 | NC(Cc1ccc(F)cc1)c1csc(Nc2nccc(C(F)(F)F)n2)n1 (stereo not given)
-0.7 | COc1ncc(-c2ccc(N3C(c4ccsc4)=Cc4ccccc4C3CC(C)=O)cc2)cn1 (stereo not given)
2.0 | COc1ccccc1-c1csc(C(O)c2ccc(F)c(F)c2)n1 (stereo not given)

Gathered by group, the entries above with a furan ring, fused or not.
HNF4A DNA FP | mol
1.8 | CCCOc1ccc(F)cc1-c1cc(C(=O)NCc2ccco2)[nH]n1
3.8 | CC(C)NC(=O)c1ccc(-c2ccc(F)c(F)c2)c2ccoc12
-5.5 | COc1ccc(-c2coc3c(C(=O)NCC4CC4)cccc23)c(C)c1
-1.4 | CC1(C(=O)Nc2ccc3c(c2)OCO3)CCN1C(=O)c1ccco1 (stereo not given)

New compounds follow.
HNF4A DNA FP | mol
-2.2 | C=CCn1c(=O)c(C(=O)Nc2ncccc2C)c(O)c2ccccc21
1.7 | O=C(NCCc1cccs1)Nc1ccc2nc([C@@H]3O[C@H](CO)[C@@H](O)[C@H]3O)[nH]c2c1
-5.4 | Cc1ccc(C(O)c2ncc(-c3cccc4ccccc34)[nH]2)cc1F (stereo not given)
0.5 | CSCCC(C(=O)NC1CCCC1)n1c(-c2ccncc2)nc2ccccc21 (stereo not given)
-0.6 | CCOC(=O)[C@]12CCC=C1N(Cc1ccccc1)C(=O)[C@H](CC(=O)NCCCCc1ccccc1)C2
1.2 | CC(=O)Nc1ccc(C2=NOC(C)(C)C(=O)N2Cc2cccc(C#N)c2)cc1
1.4 | CCOC(=O)c1ccc(-c2ccc3ncnc(NCc4csc(C)n4)c3c2)o1
3.8 | CCC1CC(C(=O)O)CC(=O)N1 (stereo not given)
3.0 | Cc1ccc(S(=O)(=O)N2C[C@H]3C(=O)C[C@@H]4C(=O)N(c5ccccc5)C(=O)[C@@H]4[C@@H]3C[C@@H]2c2ccccc2)cc1
0.8 | CN(C)c1ccc(CC(=O)N2CCCC(c3cc(C(=O)Nc4ccc(C(C)(C)C)cc4)no3)C2)cc1 (stereo not given)
0.2 | NC(=O)c1cccc(-c2csc(C(O)c3cccc(Cl)c3)n2)c1 (stereo not given)
4.1 | CCNC(=O)Nc1ccc2c(c1)c(=O)n(C)n2Cc1ccc(Cl)cc1
-1.2 | CC(C)c1ccc(O)c(=O)cc1
-0.4 | COc1ccc(-c2csc(C(O)c3ccc(F)cc3)n2)cn1 (stereo not given)
-3.1 | COc1ccc(-c2csc(C(O)c3ccc(F)c(OC)c3)n2)cn1 (stereo not given)
1.3 | CCc1nc2c(OCc3ccc(C#N)cc3)cccn2c1N(C)C(=O)c1ccc(C)cc1
-9.7 | COc1ccc(OCCN2CCC(C(=O)NC(c3ccccn3)c3ccccc3OC)CC2)cc1 (stereo not given)
-0.4 | COc1ccc(-c2ccc(C(=O)NCc3ccncc3)c3occc23)c(C)c1
2.3 | OCC[C@@H]1C[C@H](O)[C@@H](O)[C@]2(OCCc3cc(C(F)(F)F)ccc32)O1
2.0 | Cc1ccc2nc(C3CCCCC3)c(CC(C)(C)C)n2c1

(continued)
HNF4A DNA FP | mol
3.6 | CC1(C(=O)NS(=O)(=O)c2ccccc2C(F)(F)F)CCN1C(=O)COc1ccc(Cl)cc1 (stereo not given)
4.6 | CC1(C(=O)NS(=O)(=O)C2CC2)CCN(C(=O)C2(c3ccc(Cl)cc3)CCCC2)C1 (stereo not given)
4.7 | CCc1nc2c(OCc3ccc(F)c(F)c3)cccn2c1N(C)C(=O)c1cccs1
-1.5 | CC(C)C(=O)N1CCCC1(C)C(=O)NCc1ccc(Cl)cc1 (stereo not given)
-1.2 | COc1ccc(-c2ccc3c(c2)c(Sc2ccccc2)c(-c2ccccc2)n3C)cn1
-1.0 | COc1ccc(NC(=O)c2cc(C3CCCCN3C(=O)c3cc(F)ccc3C)on2)c(C)c1 (stereo not given)
2.2 | C=C[C@H]1C(C(=O)OCC)=CC[C@@H](c2ccccc2)N1S(=O)(=O)c1ccc(C)cc1
3.0 | O=S1(=O)CC(N2CCN(CCO)CC2)CN1Cc1cn(Cc2ccccc2C(F)(F)F)nn1 (stereo not given)
-1.1 | COc1ccc(NC(=O)C2(C)Cc3c(-c4ccc(C(N)=O)cc4)ccnc3O2)cc1 (stereo not given)
4.1 | Cc1ccc(Cc2c(C3CCCCC3)nc3ccc(Cl)cn23)cc1
3.4 | O=C(COC(=O)c1ccccc1Cl)NCc1cccs1
-1.6 | Cc1noc(C)c1-c1ccc(C(=O)NCCc2ccccc2)c2occc12
-2.6 | Cc1cc2nc(C3CCCCC3)c(Cc3ccsc3)n2c(C)c1Br
0.6 | CCNC(=O)C1CCCN(Cc2ccc(C)c3ccccc23)CC1 (stereo not given)
4.8 | COCCNc1nc(NCc2ccc(NC(C)=O)cc2)c2sc(-c3ccccc3)cc2n1
-3.5 | N/C(Cc1ccc(Cl)cc1)=N\OC(=O)CCc1ccccc1
-3.4 | CCOc1ccc(CCN2C(=O)C(=O)N([C@@H](Cc3ccccc3)CN3CCC[C@H]3CN3C(=O)C(=O)NC[C@@H]3Cc3ccccc3)C[C@@H]2Cc2ccccc2)cc1
5.5 | Cc1cc(C)c(S(=O)(=O)NN=C2c3ccccc3[C@H]3Cc4csc[n+]4[C@@H]23)c(C)c1
-0.2 | O=S1(=O)CC(N2CCN(CC3CC3)CC2)CN1C1CCCC1 (stereo not given)
-0.8 | CC(C)(C)NC(=O)C(C1CC1)n1c(=O)c(-c2cc3ccccc3[nH]2)nc2ccccc21 (stereo not given)

Brought forward from above: four entries, followed by the next part.
HNF4A DNA FP | mol
-3.4 | CCOc1ccc(CCN2C(=O)C(=O)N([C@@H](Cc3ccccc3)CN3CCC[C@H]3CN3C(=O)C(=O)NC[C@@H]3Cc3ccccc3)C[C@@H]2Cc2ccccc2)cc1
5.5 | Cc1cc(C)c(S(=O)(=O)NN=C2c3ccccc3[C@H]3Cc4csc[n+]4[C@@H]23)c(C)c1
-0.2 | O=S1(=O)CC(N2CCN(CC3CC3)CC2)CN1C1CCCC1 (stereo not given)
-0.8 | CC(C)(C)NC(=O)C(C1CC1)n1c(=O)c(-c2cc3ccccc3[nH]2)nc2ccccc21 (stereo not given)
-2.4 | CN(C)CCCOc1ccc(-c2cc3nc(NCc4cccnc4)n(C)c(=O)c3s2)cn1
-3.8 | O=c1[nH][nH]c2c1[C@H](c1ccc(Cl)cc1)O[C@H](C1CCCC1)C2
-0.1 | CC1(C(=O)NS(=O)(=O)c2ccc(C#N)cc2)CCN1C(=O)Cc1ccccc1Cl (stereo not given)
0.1 | CCOC(=O)[C@]12CCCC=C1N(Cc1ccccc1)C(=O)[C@H](CC(=O)NCc1ccccc1)C2
9.6 | Cc1cccc(C)c1NC(=O)C1C(c2ccc3c(c2)OCO3)=Nc2ccccc2N1C(=O)c1cccc2ccccc12 (stereo not given)
-21.7 | COC(=O)c1cnc(NC(=O)C2(C)CCN2C(=O)C(C)C)s1 (stereo not given)
8.0 | CN1CCN(C(=O)C[C@H]2CC[C@H]3[C@@H](COC[C@@H](O)CN3C(=O)C3CCCC3)O2)CC1
1.2 | CCc1nc2c(OCc3ccccc3)cccn2c1N(C)C(=O)c1ccco1
-2.3 | COCCCNC(=O)[C@@H](Cc1ccccc1)NC(=O)CC[C@H]1O[C@@H](n2ccc(=O)[nH]c2=O)[C@H](O)[C@@H]1O
0.3 | CC(C)NC(=O)C1(C)Cc2c(-c3cccc(C(N)=O)c3)ccnc2O1 (stereo not given)
3.1 | C=Cc1ccc(Cn2c(C)c(C(=O)NCc3ccccc3C(F)(F)F)sc2=O)cc1
-0.6 | O=C(CCC1CCN(C(=O)C2CC=CCC2)CC1)Nc1ccccc1 (stereo not given)
-2.8 | COc1cccc(CCN2C(=O)CCC3=C2CCC3=O)c1
8.6 | COc1ccccc1CCC(=O)Nc1ccc2c(c1)c(=O)n(C)n2Cc1cccc(C(F)(F)F)c1
1.0 | COc1ccc(NC(=O)C2(C)Cc3c(-c4ccc5c(c4)OCO5)ccnc3O2)cn1 (stereo not given)
14.7 | O=CNc1cc(-c2ccc(C(=O)NC3CC3)cc2)cn2c(-c3ccc(F)c(Cl)c3)cnc12
1.4 | CC1(C(=O)NS(=O)(=O)c2cccc(C#N)c2)CCN1C(=O)CC1CC1 (stereo not given)
0.2 | Cc1ccccc1C(=O)N1CCC[C@H]1C(=O)N1CCC[C@H]1C(=O)NCc1ccccn1
3.0 | CC(C)N1CCC(C)(C(=O)Nc2cccc3c2CCCC3)C1 (stereo not given)
13.0 | CC(=O)Nc1cc(-c2ccccc2)cn2c(-c3ccc(F)c(Cl)c3)cnc12

Further structures:
HNF4A DNA FP | mol
-2.7 | COc1cccc(C(C)(O)c2nc(-c3cccs3)cs2)c1 (stereo not given)
3.7 | COc1ccc(C2=Nc3ccccc3NC(=O)C2N(Cc2ccccc2)C(=O)C2=NNC(=O)CC2)cc1 (stereo not given)
0.3 | Cc1ccc(F)cc1-c1cc(C(=O)NCc2cc(C(F)(F)F)cc(C(F)(F)F)c2)[nH]n1
3.9 | COC(=O)CN1C(=O)CSc2ccc(S(=O)(=O)N3CCC(C)CC3)cc21
0.5 | CCCc1nc2ccc(Cl)cn2c1Cc1ccccc1
7.9 | CCC(c1nnnn1-c1ccc2c(c1)OCCO2)N1CCN(C(C)=O)CC1 (stereo not given)
-1.3 | N#Cc1ccccc1OCCCN1CCC(C(O)(c2ccccc2)c2ccccc2)CC1
1.2 | COc1ccc(F)cc1-c1cc(C(=O)NCc2ccc(F)cc2)[nH]n1

Screening results (PubChem BioAssay)
